RE007 growth inh = qHTS Assay for Inhibitors of the HIV-1 protein Vpr. Potency, µM (top dose mostly 92.2 µM), inactives show at the highest dose activity change, negative = less growth. 360,000 tested, 0.21% active. S. pombe RE007 Vpr strain, BacTiter-Glo ATP luminescence, 24 h; control for the full effect not named in the record; active = well fitted falling curve with a large enough effect; inconclusive = small, poorly fitted or top-dose-only effect; inactive = no such curve, though single readings can be large or run the other way;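 further: nearly all actives have a fitted effect of over 50% in size; the assay follows cell death caused by Vpr and the record does not say whether a fall means rescue or toxicity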
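Fission yeast RE007 carrying one integrated HIV-1 vpr copy, seeded at OD 0.01 in PMG+AL medium with 23 nL pinned compound. Grown 24 h at 30 degrees; viability read by BacTiter-Glo luminescence after 5 min.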
StopGo reporter = High Throughput Screening for Foot and Mouth Disease Virus Antivirals. human cells with a luciferase reporter of 2A StopGo recoding; control for the full effect not named in the record. Potency, µM (doses to about 57.9 µM), without a hit: at the highest dose signal change, negative = less light. 410,000 tested, 1.2% active. AID 1159524, 2015; active = well fitted falling curve with a large enough effect; inconclusive = small, poorly fitted or top-dose-only effect; inactive = no such curve, though single readings can be large or run the other way; tested in HEK293T cells; further: nearly all actives have a fitted effect of over 45% in size; luciferase light after 4 h
Starred values were filed as active, the others as inactive; ? = inconclusive; [ ] = dose if it differs, or a comment. On the % scale 0 is the no-effect control and ±100 the full control effect; potency means the concentration at half of the fitted maximal effect. A portion of the library. The share of hits here may be higher or lower than overall.

SMILES | RE007 growth inh | StopGo reporter
CSCCC(C(=O)NC(C)(C)C)n1c(-c2cccc(NC(C)=O)c2)nc2ccccc21 (stereo not drawn) | -6% | 1%
Cc1cc2nc(-c3ccc(Cl)cc3)c(Cc3cccc(Cl)c3)n2c(C)c1Br | -22% | -9%
O=C(c1[nH]c(C(F)(F)F)nc1-c1ccccc1)N1CCC(C(O)(c2ccccc2)c2ccccc2)CC1 | 11% | -17%
CC(C)OC(=O)N(C)C[C@@H]1OCc2cnnn2CCCC(=O)N([C@H](C)CO)C[C@@H]1C | -10% | 0%
COC(=O)C[C@H]1C=C[C@H](NC(=O)c2ccccn2)[C@@H](CO)O1 | 5% | -11%
Cc1ccc(-c2nn3c(-c4ccccc4)nnc3o2)cc1 | -3% | 53%[activator]
COc1ccc(Br)c(Cn2c(C)c(C(=O)NCc3ccc(F)cc3)sc2=O)c1 | 4%[18.4 µM] | -17%
COc1cc(C(=O)N2C[C@H]3CON(C)[C@H]3C[C@H]2c2ccc(N3CCCCC3)cc2)cc(OC)c1OC | 3% | 4%
C[C@@H]1CN([C@@H](C)CO)C(=O)CCCn2nncc2CO[C@H]1CN(C)S(=O)(=O)c1cccc(F)c1 | 1% | -17%
C[C@@H]1CN([C@@H](C)CO)C(=O)c2cc(Br)cnc2O[C@H]1CN(C)C(=O)c1ccccc1F | -24% | -2%
Cc1ccccc1-c1cc2nc(NCc3cccnc3)n(C)c(=O)c2s1 | -8% | 0%
COc1ccccc1-c1cc(NC=O)c2ncc(-c3ccc(F)cc3)n2c1 | 2%[18.4 µM] | ?
Cn1c(NCc2ccncc2)nc2cc(-c3ccsc3)sc2c1=O | 3%[18.4 µM] | 4%
CCCCn1c(N)c(N(CCOC)C(=O)COC(=O)c2ccccc2NCCO)c(=O)[nH]c1=O | 5% | -8%
CC(C)(C)c1ccc(CC(=O)N2CCC2(C)C(=O)NCc2cccs2)cc1 (stereo not drawn) | -7%[18.4 µM] | ?

Gathered by group: those above containing an NH in an aromatic ring
SMILES | RE007 growth inh | StopGo reporter
O=C(c1[nH]c(C(F)(F)F)nc1-c1ccccc1)N1CCC(C(O)(c2ccccc2)c2ccccc2)CC1 | 11% | -17%
CCCCn1c(N)c(N(CCOC)C(=O)COC(=O)c2ccccc2NCCO)c(=O)[nH]c1=O | 5% | -8%

The list goes on.
SMILES | RE007 growth inh | StopGo reporter
C#CCNC(=O)C1=C[C@@H](c2ccc(C#C)cc2)C[C@@H](OCCCCO)O1 | 0% | -12%
Cc1ccc2ccccc2c1C(O)c1ncc(-c2cccc(F)c2)[nH]1 (stereo not drawn) | -9% | 26%
Cc1cc(C)c(NC(=S)NC(=O)c2ccccc2)cc1C | -10% | 0%
Cn1c(=O)c2cc(NC(=O)NCc3ccccc3)ccc2n1Cc1cccc(C(F)(F)F)c1 | 10%[18.4 µM] | 9%
COC(=O)[C@@]12C[C@@H](CC(=O)NCc3ccccc3)C(=O)N(Cc3ccco3)C1=CCC(C)(C)C2 | -7% | -2%
CCOC(=O)c1ccc(NC(=O)NC2=NCCS2)cc1 | 6% | 52%[activator]
O=C(/C=C/[C@H]1O[C@@H](n2cnc3c(NC(=O)c4ccccc4)ncnc32)[C@H](O)[C@@H]1O)NCCc1c[nH]c2ccccc12 | 7% | -9%
O=C(NCc1ccncc1)[C@@H]1CCCN1C(=O)[C@@H]1CCCN1C(=O)c1ccccc1 | -6% | -26%
CC(C)(C)c1nnc(NC(=O)CCC2CCCCC2)s1 | -14% | 14%
Clc1cccc(-c2nc3ccc(Br)cn3c2Cc2ccsc2)c1 | -20% | 28%
Cc1cnc(CNC(=O)c2ccc3nc([C@@H]4O[C@H](CO)[C@H](O)[C@H](O)[C@H]4O)[nH]c3c2)cn1 | -26%[18.4 µM] | -14%
COc1ccc(CC(=O)NNC(=S)NC(=O)c2cc(OC)c(OC)c(OC)c2)cc1 | -13% | -9%
C[C@H]1CN([C@@H](C)CO)C(=O)CCCn2cc(nn2)CO[C@@H]1CN(C)S(=O)(=O)c1ccc(-n2cccn2)cc1 | -3% | -7%
CC(=O)Nc1cccc(-c2ccnc3c2CC(C(=O)NCc2ccc(F)c(F)c2)O3)c1 (stereo not drawn) | -11%[18.4 µM] | -7%
CNc1nc(Oc2cccc(F)c2)c2sccc2n1 | 1%[18.4 µM] | -9%
C[C@@H]1CN([C@@H](C)CO)C(=O)CCCn2nncc2CO[C@@H]1CN(C)S(=O)(=O)c1ccccc1F | -23% | 5%
COc1cc(NC(=O)Nc2nc(C(N)CCc3ccccc3)cs2)cc(OC)c1OC (stereo not drawn) | 0% | -23%
CCOC(=O)C1(C)CCN1C(=O)c1ccc(-c2ccccc2)cc1 (stereo not drawn) | 3%[18.4 µM] | 23%
OC(c1cccc(Cl)c1)c1ncc(-c2cccc(C(F)(F)F)c2)[nH]1 (stereo not drawn) | -17% | 25%
Cc1ccc2nc(-c3ccc(C#N)cc3)c(Cc3ccccc3C(F)(F)F)n2c1 | -13% | -7%
O=CNc1cc(-c2ccccc2Oc2ccccc2)cn2c(-c3ccc(F)cc3)cnc12 | 1% | -4%
CCOC(=O)c1ccc(NC(=O)c2nc[nH]c2C(=O)N[C@H](C)CO)cc1 | -16% | -22%
O=C(NCc1nnnn1-c1ccccc1)c1ccc2ccccc2c1 | -4% | ?
CCOC(=O)[C@]12CCC=C1N(Cc1ccco1)C(=O)[C@H](CC(=O)NCC13CC4CC(CC(C4)C1)C3)C2 | 1% | -18%
CCc1nc2ccc(C(=O)NCCCn3ccnc3)cn2c1N(C)C(=O)c1cccc(OC)c1 | 9% | -1%
C[C@H](CO)N1C[C@H](C)[C@@H](CN(C)Cc2cccc(C(F)(F)F)c2)OCc2cnnn2CCCC1=O | 0% | -14%
CC(=CCOc1ccc2ccc(=O)oc2c1)C1=CC(=O)C(C)(C)O1 | -1% | 28µM*
COC(=O)C1=C(C)N(CCc2cc(OC)c(OC)c(OC)c2)C(=O)N[C@H]1c1ccccc1 | 4% | -21%
CN(Cc1cn(Cc2ccc(C(F)(F)F)cc2)nn1)C1CN(Cc2cn(Cc3ccc(C(F)(F)F)cc3)nn2)S(=O)(=O)C1 (stereo not drawn) | -1% | 18µM*
OCCN1CCN(c2ncnc3c2ncn3[C@H]2CN(Cc3ccc(Cl)cc3)C[C@@H](CO)O2)CC1 | 1% | -6%
COc1cc(NC(=O)[C@H]2O[C@@H](n3cnc4c(N)ncnc43)[C@H](O)[C@@H]2O)cc(OC)c1OC | -4% | -6%
NCCCC[C@H]1CN=C(N)N1CCCCC1CCCCC1 | 0% | -9%
CCN(CC)S(=O)(=O)c1ccc(C(=O)NC(=S)N2CCCCC2C)cc1 (stereo not drawn) | 9% | -19%
COc1cc(CN2CCC(C(=O)NC(c3ccc(F)cc3)c3ccc4ccccc4n3)CC2)cc(OC)c1 (stereo not drawn) | -3% | 35µM*
CCOC(=O)[C@H]1[C@H]2COc3ccc(OC)cc3[C@H]2N2C(=O)CN(Cc3ccccc3)C(=O)[C@@]12C | 5% | -7%
COc1ccccc1Cc1c(-c2ccc(OC)c(OC)c2)nc2ccc(Br)cn12 | -13% | -12%
O=C(NCc1ccc(Cl)nc1)c1csc(COCCO)n1 | 6% | -16%
CC(=O)Nc1cccc(-c2ccnc3c2CC(C)(C(=O)NCC2CC2)O3)c1 (stereo not drawn) | -6% | -15%
COc1ccc(C(C)=O)cc1Cn1c(C)c(C(=O)NCc2cccc(Cl)c2)sc1=O | -14%[18.4 µM] | 0%
C[C@H]1CN([C@@H](C)CO)C(=O)c2cc(C3=CCCCC3)cnc2O[C@@H]1CN(C)C(=O)Cc1ccccc1 | 6% | -10%
O=C(O)CCCN1C(=O)C2C3CCC(C3)C2C1=O (stereo not drawn) | 0% | 0%
Cc1nc2ccc(C(=O)NC(C)(C)C)cn2c1N(C)C(=O)CCc1ccccc1 | 1%[18.4 µM] | 1%
O=C1NCCc2onc(-c3ccc(Br)cc3)c21 | -15% | 20%
CC(=O)OC1C(O)C2=C3C4(C)C1C(C)(C)C(=O)CC4C3(O)C(OC(C)=O)C1(CC1C)C2=O (stereo not drawn) | 38% | 22µM*
C[C@H]1CN([C@@H](C)CO)C(=O)CCCn2nncc2CO[C@H]1CN(C)S(=O)(=O)c1ccc(Oc2ccccc2)nc1 | -9% | 0%
CCOC(=O)[C@H]1[C@H]2COc3ccc(C)cc3[C@@H]2N2C(=O)CN(C)C(=O)[C@@]12C | 6% | -10%
C=CCNc1ncnc2c1ncn2[C@H]1CN(CCOC)C[C@@H](CO)O1 | 0% | 0%
O=C(NC(c1ccccc1)c1ccc2ccccc2n1)C1CCN(Cc2ccc(Cl)c(Cl)c2)CC1 (stereo not drawn) | -13% | -20%
COCCN1C(=O)CN(S(C)(=O)=O)CC1(C)C(=O)Nc1ccc2c(c1)OCCO2 (stereo not drawn) | 5% | -20%
COC(=O)CCC(C)C1CCC2C3C(OC(C)=O)CC4CC(O)CCC4(C)C3CC(O)C12C (stereo not drawn) | 0% | -29%
O=C(Nc1cccc(-c2ccc(N3CCOCC3)nn2)c1)c1cccc(Cl)c1 | -1% | 20%
OCC[C@@H]1C[C@@H](O)[C@H](O)[C@@]2(CCCCO2)O1 | -8% | -1%
COc1ccc(CN2C[C@@H](CO)O[C@@H](n3cnc4c(NCCN(C)C)ncnc43)C2)cc1 | -17% | -8%
COc1ccc(OC(=O)N(C)C[C@@H]2OCc3cnnn3CCCC(=O)N([C@@H](C)CO)C[C@@H]2C)cc1 | -26% | -7%
COC(=O)c1ccc2nc(-c3cccc(Br)c3)c(CC3CCCCC3)n2c1 | -12% | ?
Cc1ccc(S(=O)(=O)N(C)C)cc1NC(=O)C(C)OC(=O)c1ccc2c(=O)n3c(nc2c1)CCC3 (stereo not drawn) | -8% | 6%
COC(=O)C[C@@H]1C=C[C@@H](NC(=O)c2ccc3c(c2)OCO3)[C@@H](CO)O1 | -5% | -20%
Nc1ccc2c(c1)C(=O)CCC2 | -5% | -3%
Nc1c(CNCc2nnn(Cc3ccccc3)c2N)nnn1Cc1ccccc1 | 0% | 0%
CCOc1ccc(C(=O)COC(=O)Cn2[nH]c(=O)c3ccccc3c2=O)cc1 | -12% | -16%

(cont.)
SMILES | RE007 growth inh | StopGo reporter
CCN(C(=O)CN1C(=O)S/C(=C\c2ccccc2Cl)C1=O)C1CCS(=O)(=O)C1 (stereo not drawn) | 13% | 9%
OC(c1ccc(Cl)c(F)c1)c1ncc(-c2cccc(F)c2)[nH]1 (stereo not drawn) | -24% | 55%[activator]
CC1(c2nnc(Cc3ccccc3)o2)CC(c2cccnc2)=NO1 (stereo not drawn) | 8% | 2%
COc1ccc(-c2cnc(C(O)c3ccc(-c4ccccc4)cc3)[nH]2)cc1 (stereo not drawn) | -10% | -10%
CC1(c2nnnn2-c2ccc3c(c2)OCCO3)CCC(=O)N1Cc1ccc(F)cc1 (stereo not drawn) | 1% | -14%
Brc1ccc2c(c1)CN(CC1CCCCC1)Cc1cnnn1-2 | -11% | -16%
Cc1cccc(/N=C/c2ccccn2)n1 | -2% | 3%
COc1ccc(-c2oc3ccc(N4CCOCC4)cc3c2C#CC2(O)CCCCC2)cc1 | 1% | 15%
COC(=O)c1ccc2nc(-c3cccc(Cl)c3)c(Cc3ccsc3)n2c1 | -23% | 21%
Cc1ccc(S(=O)(=O)N2CCCc3ccccc32)cc1 | 10% | 4%
COc1cccc(C(C)(O)c2nc(-c3cccc4cccnc34)cs2)c1 (stereo not drawn) | -9%[18.4 µM] | -11%
Cc1ccn2c(NC3CCCCC3)c(-c3ccc(SC4CCCCC4)cc3)nc2c1 | 0% | ?
COc1ccc(S(=O)(=O)N2CCCCC2)cc1NC(=O)CCC(=O)N1CCC(c2ccccc2)=N1 | 8% | -10%
Nc1ncnc2c1ncn2[C@@H]1O[C@H](C(=O)N[C@@H](CO)c2ccccc2)[C@@H](O)[C@H]1O | 6% | 29%
CC(C)CC(CO)N1CCN(C(=O)c2ccc(Cl)cc2)CCC1=O (stereo not drawn) | -1% | -11%

In the list so far, twelve contain a Cl atom:
SMILES | RE007 growth inh | StopGo reporter
Cc1cc2nc(-c3ccc(Cl)cc3)c(Cc3cccc(Cl)c3)n2c(C)c1Br | -22% | -9%
Clc1cccc(-c2nc3ccc(Br)cn3c2Cc2ccsc2)c1 | -20% | 28%
OC(c1cccc(Cl)c1)c1ncc(-c2cccc(C(F)(F)F)c2)[nH]1 (stereo not drawn) | -17% | 25%
OCCN1CCN(c2ncnc3c2ncn3[C@H]2CN(Cc3ccc(Cl)cc3)C[C@@H](CO)O2)CC1 | 1% | -6%
O=C(NCc1ccc(Cl)nc1)c1csc(COCCO)n1 | 6% | -16%
COc1ccc(C(C)=O)cc1Cn1c(C)c(C(=O)NCc2cccc(Cl)c2)sc1=O | -14%[18.4 µM] | 0%
O=C(NC(c1ccccc1)c1ccc2ccccc2n1)C1CCN(Cc2ccc(Cl)c(Cl)c2)CC1 (stereo not drawn) | -13% | -20%
O=C(Nc1cccc(-c2ccc(N3CCOCC3)nn2)c1)c1cccc(Cl)c1 | -1% | 20%
CCN(C(=O)CN1C(=O)S/C(=C\c2ccccc2Cl)C1=O)C1CCS(=O)(=O)C1 (stereo not drawn) | 13% | 9%
OC(c1ccc(Cl)c(F)c1)c1ncc(-c2cccc(F)c2)[nH]1 (stereo not drawn) | -24% | 55%[activator]
COC(=O)c1ccc2nc(-c3cccc(Cl)c3)c(Cc3ccsc3)n2c1 | -23% | 21%
CC(C)CC(CO)N1CCN(C(=O)c2ccc(Cl)cc2)CCC1=O (stereo not drawn) | -1% | -11%
